LANA-H2B inh: blocks KSHV LANA binding to histone H2A/H2B; Q9QR71; cell-free LANA-H2A/H2B peptide, fluorescence polarization; inhibition, % (no concentration beside the values); actives 0.6% (n = 320,000); AID 2629; in the data active means inhibition mostly above about 10%, no sharp cut-off; inactive means mostly below about 6.7%;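 further: stock transfer was 7.5 nL into about 10 µL; 0% = median of vehicle wells and 100% = median of positive control wells; one replicate is shown; the record names a cut of 25% in any replicate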
T cruzi inh: blocks replication of Trypanosoma cruzi. actives 1.4% (n = 300,000). AID 1885. T. cruzi beta-gal in NIH3T3, luminescence, 90 h. inhibition, % (test concentration not listed);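 active means mean inhibition across valid replicates above about 55%, limit read from the data; inconclusive means mean below that limit but half or more replicates reach it; inactive means mean below it, under half of replicates reach it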;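 further: signal also drops with host cell toxicity which is not excluded here; 0% = plate median of DMSO wells and 100% = zero luminescence signal; higher percent means less beta-gal luminescence so fewer parasites; stock transfer was 50 nL into about 50 µL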
ALR H2O2 inh: inhibitors of human sulfhydryl oxidase ALR; P55789; purified ALR, DTT oxidation, H2O2 HRP-luminol luminescence; inhibition, % (no concentration beside the values); actives 3.8% (n = 290,000);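 active means mean and each replicate at 75% or more; inconclusive means only one of the two met; inactive means neither met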;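 further: stock transfer was 7.5 nL into about 7.5 µL; 0% = neutral wells and 100% = wells with inactivated enzyme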
Target sequence (P55789 whole entry, looked up): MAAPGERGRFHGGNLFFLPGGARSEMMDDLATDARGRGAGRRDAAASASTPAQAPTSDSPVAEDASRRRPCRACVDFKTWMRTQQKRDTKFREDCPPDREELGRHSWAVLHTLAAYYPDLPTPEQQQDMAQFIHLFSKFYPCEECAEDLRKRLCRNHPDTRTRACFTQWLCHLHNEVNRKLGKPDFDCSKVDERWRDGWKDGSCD
B2AR ag: agonists of human beta-2 adrenergic receptor inducing internalization. P07550. Am2.2-beta2AR cells, FAP receptor internalization, flow cytometry; reference of the scale not given here. response, % (test concentration not listed). actives 0.43% (n = 340,000). AID 504454;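 active means response above a set limit, near 3 SD of response in nonfluorescent compounds, cut at about 42% in these data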;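 further: stock transfer was 100 nL into about 11 µL; a reference agonist was the positive control; negative values mostly stem from fluorescent compounds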
Target sequence (P07550 whole entry, looked up): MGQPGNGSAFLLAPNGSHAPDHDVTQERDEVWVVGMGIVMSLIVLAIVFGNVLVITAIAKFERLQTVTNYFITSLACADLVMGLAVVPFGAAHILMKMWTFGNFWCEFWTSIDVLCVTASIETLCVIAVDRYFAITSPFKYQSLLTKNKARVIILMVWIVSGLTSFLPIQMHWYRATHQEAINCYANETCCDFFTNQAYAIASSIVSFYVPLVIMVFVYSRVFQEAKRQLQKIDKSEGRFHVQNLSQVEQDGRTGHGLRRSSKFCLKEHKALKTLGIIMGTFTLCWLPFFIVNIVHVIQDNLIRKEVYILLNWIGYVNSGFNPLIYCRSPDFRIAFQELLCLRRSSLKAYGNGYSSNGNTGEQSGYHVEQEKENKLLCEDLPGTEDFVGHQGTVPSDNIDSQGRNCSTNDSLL
Bfl-1 A1 inh: inhibitors of the anti-apoptotic protein A1, read as caspase activation | AID 2462 | MEF A1-2A-BIM cells, Caspase-Glo 3/7 luminescence, 3 h; percent of clofoctol response, vehicle zero | actives 0.066% (n = 330,000) | caspase activation, % (test concentration not listed);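 active means over half of replicate activation scores above 10%, or exactly half above 10 with the replicate mean above 10; inconclusive means replicate mean below 10 yet half the replicates above 10; inactive means over half of replicates below 10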;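 further: wells of about 30 µL received 50 nL stock; many hits fall short of the cut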
Calb FLC: C. albicans growth modulation with fluconazole. C. albicans CaCi-2 (fluconazole-resistant clinical isolate) + fluconazole, Alamar Blue growth, 48 h. growth inhibition, % (no concentration beside the values). actives 0.57% (n = 300,000);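 active means most replicates above 75%; inconclusive means exactly half above 75%; inactive means most below 75%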;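 further: all wells also contain fluconazole at 8 µg/ml as a sub-toxic cotreatment; 0% = median of DMSO wells and 100% = median of geldanamycin control wells; wells of about 8 µL received 7.5 nL stock; the first replicate is given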
Beta cell apopt: blocks beta cell apoptosis; INS-1E cytokine-induced death, ATP luminescence, 48 h; percent of positive-control rescue, neutral wells zero; actives 0.8% (n = 300,000); protection from apoptosis, % (test concentration not listed);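 active means all replicates at 75% or more, or half of them and the mean; inconclusive means half reach 75% but not the mean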;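 further: 0% = cytokine-treated negative control wells and 100% = positive control rescue; higher means more ATP so stronger rescue from cytokine killing; wells of about 40 µL received 100 nL stock; the first replicate is given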
Ecoli rRNA inh: inhibits bacterial ribosomal RNA function over humanized ribosomes; E. coli WT GFP vs humanized-ribosome RFP mutants, fluorescence, 24 h; hits give low values; DMSO median 0, no signal -100; actives 1.6% (n = 350,000); AID 720706; GFP signal change (wild-type ribosome), % (concentration not given with the values);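 active means significant combined selectivity score with lowered wild-type GFP, culture density cut under 30%, mutant RFP and density less affected; inactive means any of these conditions unmet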; further: one replicate is shown; some compounds called inactive have numbers as strong as hits
Ecoli rRNA inh OD600: also measured in Ecoli rRNA inh; calls as there; OD600 change, %; measured here: OD600 growth;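 optical density of the mix in the first replicate; 0 = DMSO median and -100 = no signal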
Ecoli rRNA inh RFP: recorded beside Ecoli rRNA inh, whose call it bears; RFP signal change, %; measured here: RFP humanized mutant strains;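 first replicate; 0 = DMSO median and -100 = no signal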
* hit, by the source's call; ? = inconclusive; / = no result given.

structure	LANA-H2B inh	T cruzi inh	ALR H2O2 inh	B2AR ag	Bfl-1 A1 inh	Calb FLC	Beta cell apopt	Ecoli rRNA inh	Ecoli rRNA inh OD600	Ecoli rRNA inh RFP
CC(=O)c1cccc(NC(=S)Nc2ccn(Cc3cccc4ccccc34)n2)c1	2.7	15	-28	5	1.2	32	0	-10	-4	7.9
CCOC(=O)c1csc(NC(=O)c2ccc(S(=O)(=O)N3CCCC3)cc2)n1	1.1	-7	-2	4	-0.6	-3	2	2	8	-2.5
Cc1ccc(Nc2nc3nonc3[nH]c2=O)cc1Cl	1.6	-8	17	30	0.5	0	20	-59	-77	-23
Clc1cnc(N/N=C/c2ccncc2)c(Cl)c1	-6.2	-6	5	-23	-0.2	-9	-3	-4	-2	-2.1
Cc1c(C(=O)c2ccccc2)oc2ccc3ccccc3c12	4.4	17	-16	0	1.7	3	2	18	-2	0.2
CC(NC(=O)CCSc1nc(-c2ccco2)cc(C(F)(F)F)n1)c1ccccc1 (stereo unspecified)	0.2	19	1	-15	-0.2	-1	-10	/	/	/
COc1ccc(C(=O)NCC(=O)OCC(=O)NC(=O)c2ccc(C(C)(C)C)cc2)cc1OC	-1.2	/	-6	-2	0.5	/	-6	3	4	-0.4
CCOC(=O)c1csc(NC(=O)C(C)(C)C)n1	-1.4	-10	0	-10	-0.6	0	2	3	4	1.1
COc1ccccc1NCC(=O)NN=C1CCS(=O)(=O)c2ccc(F)cc21	-3.9	/	29	8	0.3	/	1	/	/	/
CNc1[nH]ncc1[N+](=O)[O-]	2.6	-8	-15	4	-0.6	0	0	12	18	5.1
N#CCCN1CCCN(CCC#N)CCN(CCC#N)CCCN(CCC#N)CC1	0.0	19	-7	-9	-2.6	1	-2	25	17	3.2
O=C(COC(=O)CCNS(=O)(=O)c1ccccc1F)Nc1nnc(-c2ccccc2)o1	1.3	-5	2	0	0.0	7	-3	-1	-5	-1.7
CCC(Sc1nc2sc(C(=O)OC)c(C)c2c(=O)n1N)C(=O)NCC1CCCO1 (stereo unspecified)	1.2	3	36	-6	0.4	40	0	/	/	/
O=C(CSc1ncn[nH]1)Nc1ccc(Br)cc1F	-5.0	-27	-16	9	0.5	?	8	/	/	/
CCc1ccccc1Nc1nc(N)nc(COC(=O)CCC(=O)c2ccc(F)cc2)n1	0.4	/	/	4	-0.3	/	-9	-3	-30	2.4
CCOC(=O)N1CCN(C(=O)CSc2nc3c(cnn3-c3ccc(Cl)cc3)c(=O)[nH]2)CC1	2.6	5	-5	-1	0.1	2	5	1	8	-3.2
COc1ccc(N2CCN(C(=O)Nc3ccccc3Cl)CC2)cc1	3.2	6	87*	4	0.1	-53	-1	-23*	-18*	-1.7*
Nc1ccc(-n2nncc2-c2ccco2)cc1	-3.4	3	/	-2	0.3	-18	-3	/	/	/
COc1ccc(NC(=O)c2cc(NC(=O)C3CCCCC3C(=O)O)ccc2N2CCOCC2)cc1 (stereo unspecified)	-8.5	-9	1	6	-0.4	3	0	0	2	-1.0
CN=C1S/C(=C\c2ccc(Cl)cc2)C(=O)N1C	4.8	-19	-4	-14	0.2	-9	-19	4	2	-1.9
CN1CCN(S(=O)(=O)c2ccc3c(c2)C(C)(C)C(=O)N3C)CC1	-1.5	-15	-9	1	-0.1	-4	-2	1	12	-1.7
COc1cccc(NC(=O)CNC(=O)[C@@H]2Cc3ccccc3CN2C(=O)OC(C)(C)C)c1	0.9	-6	-55	-1	0.4	4	-3	-3	0	1.2
CCOc1ccc(S(=O)(=O)N2CCN(C(=S)NCC3CCCO3)CC2)cc1 (stereo unspecified)	-0.6	-9	-12	-9	-1.0	-1	-1	-3	7	1.9
COc1ccc(OC)c(-n2c(CN3CCC(C(N)=O)CC3)nc3ccccc3c2=O)c1	-1.5	11	-11	-1	0.2	117*	-1	/	/	/
COc1cc(C(=O)NNC(=O)c2cc(-c3ccccc3)n[nH]2)cc(OC)c1C	1.6	/	-2	6	0.9	/	19	-6	-11	-2.6
CCCCn1c(=O)[nH]c(=O)c2c1nc(CN(C)Cc1cccc(OC)c1OC)n2CCC	0.7	2	-15	-24	0.3	-8	3	-1	-3	4.1
CC1(c2ccccc2)NC(=O)N(CC(=O)Nc2cc(Cl)ccc2N2CCOCC2)C1=O (stereo unspecified)	-3.5	6	13	8	0.0	-4	4	-16	-13	-0.2
Cc1cccc(N2CC(O)(c3cccs3)[N+]3=C2CCCC3)c1 (stereo unspecified)	-4.0	16	6	4	-0.3	-6	-1	5	-6	-1.7
Cc1nnc(SCC2=C(C(=O)O)N3C(=O)C(NC(=O)COc4ccc(F)cc4)C3SC2)s1 (stereo unspecified)	1.4	/	/	1	2.9	/	-5	/	/	/
Cc1nn2c(N3CCOCC3)c3c(nc2c1-c1ccccc1)CCCC3	-0.1	18	3	-19	-0.6	10	-9	/	/	/

(further entries)
structure	LANA-H2B inh	T cruzi inh	ALR H2O2 inh	B2AR ag	Bfl-1 A1 inh	Calb FLC	Beta cell apopt	Ecoli rRNA inh	Ecoli rRNA inh OD600	Ecoli rRNA inh RFP
COc1ccc(Nc2ncnc3c2c(C)c(C)n3CCO)cc1	-2.1	-9	19	11	-0.3	-9	-3	-10	-8	-1.0
c1ccc(NCc2cccnc2)cc1	0.4	/	/	-4	0.4	/	1	/	/	/
O=C(COc1ccccc1)N/N=C/c1ccc2c(c1)OCO2	0.5	2	-4	0	-0.1	-21	4	18	22	3.4
C=CCNc1ccc(C(=O)O)cc1	0.5	-19	2	-16	0.5	22	3	/	/	/
CCOc1ccc(/C=N/n2nnnc2N)cc1OCC	1.0	-15	-6	-2	-0.1	1	2	-7	-11	-14
COc1cc(NC(=O)c2cccc(C)c2)c(OC)cc1NC(=O)CN1CCOCC1	-1.1	-1	/	5	0.5	-1	-3	0	2	-0.2
O=C(N=C1SC2CS(=O)(=O)CC2N1c1ccccc1F)C1CCCCC1 (stereo unspecified)	1.8	-1	-1	-6	-0.3	9	-1	6	13	-4.6
Cc1nn(C)c(C(=O)NN)c1Cl	-4.1	-12	-6	0	-0.3	11	-6	25	22	3.4
CCOc1ccc(Cc2nnc(SCC(=O)Nc3c(C)cccc3C)[nH]c2=O)cc1	0.6	-3	1	3	0.2	-8	/	-2	6	-2.5
CC(=O)Nc1ccc(-c2cc(N)n(-c3ccccc3)n2)cc1	-5.6	-5	-3	-10	-6.9	3	5	-2	-1	3.4
CCCCNC(=O)Cn1nc(Cc2ccncc2)c2ccccc2c1=O	-3.2	-15	6	0	0.3	6	-1	16	17	0.9
O=C(CN1CCC(C(=O)c2ccc3c(c2)OCCO3)CC1)NCc1ccc(F)cc1	-3.3	20	2	-4	1.5	-1	-2	4	-13	-0.5
c1cncc(-c2nnc(SCc3cccc4ccccc34)o2)c1	2.1	-2	/	-22	-0.5	4	-7	-53	-75	-15
COc1ccccc1CN1CN(S(=O)(=O)c2ccccc2)c2nc3ccccc3nc21	-4.3	47	-6	-2	0.1	28	5	-4	-7	5.5
Cc1ccc(S(=O)(=O)N2CCC(C(N)=O)CC2)cc1C(=O)NC1CCCCC1	3.2	13	-4	2	-0.6	2	-11	10	13	-0.5
CCOc1ccc(N2C(=O)C(CC(=O)Nc3ccccc3)N(Cc3ccccn3)C2=S)cc1 (stereo unspecified)	4.3	12	-8	3	0.0	39	-5	-12	-21	-0.4
FC(F)C(F)(F)C(F)(F)C(F)(F)c1cc(-c2ccccc2)n[nH]1	-1.0	12	7	1	-0.3	-28	1	/	/	/
CN1CCCC1CCNc1ccc2c(=O)c3ccccc3oc2c1 (stereo unspecified)	7.0	47	-6	9	-0.9	-20	4	-15	-6	-2.6
COc1ccc(C(=O)NCc2nnc(SCC(=O)N3CCc4ccccc43)n2Cc2ccccc2)cc1	-0.3	14	-10	-11	0.3	-4	0	15	10	-0.1
NS(=O)(=O)c1ccc(NC(=O)c2ccc(S(=O)(=O)N3CCCCCC3)cc2)cc1	-1.6	/	-5	-1	1.0	/	-3	-20*	-28*	-0.4*
O=C1CCCN1c1ccc(S(=O)(=O)Nc2cccnc2)cc1	0.1	-6	-4	0	0.1	-6	2	12	10	-13
Cc1c(Cl)cccc1NC(=S)NC1CCCC1	6.7	-11	-3	-3	-1.1	-13	7	5	6	-1.2
CCOC(=O)c1c(NC(=O)CSc2nnc(-c3ccccc3)n2CC)sc(C(C)=O)c1C	23*	4	-6	-1	-0.5	4	2	-37*	-28*	4.8*
Cc1cccc(-n2c(SCC(=O)Nc3nnc(C)s3)nnc2-c2ccoc2C)c1	1.9	-9	3	7	0.2	0	2	/	/	/
CCN(CC(=O)NCc1ccc(F)cc1)C(=O)c1ccc(C(=O)c2ccccc2)cc1	6.9	7	-7	-8	0.7	-12	2	-12	-17	2.1
COCCOC(=O)c1c(C)oc2ccc(OC(=O)c3ccc4c(c3)OCO4)cc12	-1.6	-5	2	2	0.6	1	-4	/	/	/
COc1ccc(C(C(=O)NCC2CCCO2)N(C(=O)CNC(=O)c2cccs2)c2ccccc2)cc1OC (stereo unspecified)	0.3	5	4	-14	1.7	2	-5	12	13	1.6
O=c1c(-c2ccc(Br)cc2)coc2c(CN3CCOCC3)c(O)ccc12	4.8	-2	-1	-14	1.3	2	4	/	/	/
Cc1ccc(/C=N/n2c(C)cc(C)c(C#N)c2=O)o1	-2.3	-8	1	0	0.1	-13	-3	9	0	0.3
Cc1cc(O)c(/C=N/Nc2ccc(F)cc2)c(=O)o1	5.7	13	-53	4	-0.4	122*	-2	10	8	1.1

More compounds.
structure	LANA-H2B inh	T cruzi inh	ALR H2O2 inh	B2AR ag	Bfl-1 A1 inh	Calb FLC	Beta cell apopt	Ecoli rRNA inh	Ecoli rRNA inh OD600	Ecoli rRNA inh RFP
CCN1CCCC1CNC(=O)c1ccc(CS(=O)(=O)c2ccccc2C)o1 (stereo unspecified)	-2.0	2	-3	1	-0.3	-1	-8	/	/	/
COc1ccccc1NC(=O)Nc1nc(CC(=O)Nc2cccc(F)c2)cs1	1.6	16	8	8	-0.1	-4	6	-55	-79	-15
Fc1ccc(C2=CC(c3cccs3)n3nnnc3N2)cc1 (stereo unspecified)	-0.3	-1	-8	-3	1.1	-4	/	9	2	7.4
Cc1ccnn1CCC(=O)N1CCCC(N2CCN(c3cccc(Cl)c3)CC2)C1 (stereo unspecified)	1.6	3	45	-10	-0.9	-4	-3	-1	-1	-1.8
COc1ccccc1NC(=O)N1CCC(NC(=O)C2CCCCC2)CC1	2.4	-3	-3	15	0.1	-13	-9	6	12	1.8
COc1ccc(Cl)cc1N=Cc1c(O)cc(C)oc1=O	-4.1	4	21	-2	-1.3	-7	-1	/	/	/
CCCC(=O)Nc1ccccc1NC(=O)CN(C)S(=O)(=O)c1ccccc1	-3.4	-4	2	10	1.0	27	/	/	/	/

Source: PubChem BioAssay (several laboratories)

Only part of the results is shown; rates above refer to the full screens.
